# Cruzain inh noDet – qHTS Assay for Promiscuous and Specific Inhibitors of Cruzain (without detergent). purified cruzain, Z-FR-AMC fluorescence, no detergent. Potency, µM, for inactives: max response, negative = inhibition, usual class: inhibitors. Cruzipain (Trypanosoma cruzi), P25779. actives 2.3% (n = 200,000). AID 1476, 2009;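 further: plate controls were enzyme without inhibitor for no effect and buffer without enzyme for full effect; nearly all actives have a fitted effect of over 40% in size; top concentration of the series not given in the record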
# Target sequence (P25779 123-467 limits assumed): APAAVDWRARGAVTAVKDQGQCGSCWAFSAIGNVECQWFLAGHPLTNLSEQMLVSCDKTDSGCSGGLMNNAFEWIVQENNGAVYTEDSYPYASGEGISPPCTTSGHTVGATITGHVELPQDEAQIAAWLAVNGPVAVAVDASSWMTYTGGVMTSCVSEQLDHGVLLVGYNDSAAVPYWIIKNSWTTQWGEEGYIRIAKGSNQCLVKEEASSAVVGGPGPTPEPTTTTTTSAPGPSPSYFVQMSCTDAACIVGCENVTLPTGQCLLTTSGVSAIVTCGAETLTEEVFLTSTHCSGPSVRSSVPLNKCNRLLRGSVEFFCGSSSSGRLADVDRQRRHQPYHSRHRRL
#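 Detergent-free condition (0.00005% Triton X-100) in acetate buffer pH 5.5 with DTT. 1.5 nM enzyme and compound were pre-mixed 15 min, then 2 uM Z-FR-AMC substrate added; reaction progress from fluorescence change between first and third reads (60 s).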
# NS1 function inh – qHTS Assay for Inhibitors of Influenza NS1 Protein Function. S. cerevisiae slowed by influenza A NS1, growth recovery by OD600. Potency, µM (top dose mostly 46.1 µM), inactives show at the highest dose activity, positive = more growth. actives 0.4% (n = 270,000); active means well fitted rising curve with a large enough effect; inconclusive means small, poorly fitted or top-dose-only effect; inactive means no such curve, though single readings can be large or run the other way; further: nearly all actives have a fitted effect of over 50% in size
#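 Read-out: OD600 growth recovery of NS1-expressing budding yeast. Cells grown overnight at 30C in -URA glucose medium, washed, resuspended and diluted 1:100 in 2% galactose assay medium, pH 6.0. Same strain lacking NS1 served as positive control.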
# Lassa entry inh – qHTS for Inhibitors of binding or entry into cells for Lassa Virus; Lassa virus pseudotype entry inhibition, cell reporter; control for the full effect not named in the record; Potency, µM (series often up to 37.9 µM), without a hit: at the highest dose activity change, negative = inhibition, actives largely listed as inhibitors; actives 1.2% (n = 300,000); active means well fitted inhibition curve with a large enough effect; inconclusive means small, poorly fitted or top-dose-only effect, or effect the other way; inactive means flat fitted curve, though single readings scatter; tested in HEK293 cells; further: on the % scale 0 is the no-effect control and ±100 the full control effect; nearly all actives have a fitted effect of over 50% in size; luciferase read-out
# SARS PLP yeast – qHTS of Yeast-based Assay for SARS-CoV PLP | actives 0.19% (n = 330,000) | S. cerevisiae expressing SARS-CoV PLpro, growth rescue; control for the full effect not named in the record | Potency, µM (top dose mostly 32.9 µM), inactives show at the highest dose activity, positive = growth rescue; active means well fitted rising curve with a large enough effect; inconclusive means small, poorly fitted or top-dose-only effect; inactive means no such curve, though single readings can be large or run the other way; further: 0% is about no effect; nearly all actives have a fitted effect of over 55% in size; growth read by luminescence after 48 h
# 2A StopGo – High Throughput Screening for Foot and Mouth Disease Virus Antivirals; AID 1159524, 2015; Potency, µM (doses to about 57.9 µM), for the others: at the highest dose signal change, negative = less light; human cells with a luciferase reporter of 2A StopGo recoding; control for the full effect not named in the record; actives 1.2% (n = 410,000); active = well fitted falling curve with a large enough effect; inconclusive = small, poorly fitted or top-dose-only effect; inactive = no such curve, though single readings can be large or run the other way; tested in HEK293T cells; further: on the % scale 0 is the no-effect control and ±100 the full control effect; nearly all actives have a fitted effect of over 45% in size; luciferase light after 4 h
# MARV entry inh – qHTS for inhibitors of binding or entry into cells for Marburg Virus; Marburg virus pseudotyped entry inhibition, cell reporter; control for the full effect not named in the record; about a third of the inactives were read at about 46 µM; actives 1.8% (n = 300,000); AID 540276, 2011; Potency, µM (highest dose often 37.8 µM), inactives show top-dose activity change, negative = inhibition, most hits filed as inhibitors; active = well fitted inhibition curve with a large enough effect; inconclusive = small, poorly fitted or top-dose-only effect, or effect the other way; inactive = flat fitted curve, though single readings scatter; tested in HEK293 cells; about a fifth of its hits are not listed in these tables; further: on the % scale 0 is the no-effect control and ±100 the full control effect; luciferase read-out
# Cruzain Triton – qHTS Assay for Promiscuous and Specific Inhibitors of Cruzain (with detergent); Cruzipain (Trypanosoma cruzi), P25779; purified cruzain, Z-FR-AMC fluorescence, 0.01% Triton; Potency, µM, inactives show max response, negative = inhibition, hits mostly inhibitors; actives 0.43% (n = 200,000);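 further: plate controls were neutral wells for no effect and buffer without enzyme for full effect; nearly all actives have a fitted effect of over 40% in size; top concentration of the series not given in the record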
#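 Detergent-containing arm of a paired screen for aggregation-based inhibition: 0.01% Triton X-100 present. Cruzain at 1.5 nM cleaved 2 uM Z-FR-AMC at pH 5.5 with 5 mM DTT; AMC fluorescence gain over 60 s measured activity.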
# RE007 growth inh – qHTS Assay for Inhibitors of the HIV-1 protein Vpr. actives 0.21% (n = 360,000). Potency, µM (series often up to 92.2 µM), inactives show at the top dose activity change, negative = less growth. S. pombe RE007 Vpr strain, BacTiter-Glo ATP luminescence, 24 h; control for the full effect not named in the record; active = well fitted falling curve with a large enough effect; inconclusive = small, poorly fitted or top-dose-only effect; inactive = no such curve, though single readings can be large or run the other way;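 further: on the % scale 0 is the no-effect control and ±100 the full control effect; nearly all actives have a fitted effect of over 50% in size; the assay follows cell death caused by Vpr and the record does not say whether a fall means rescue or toxicity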
#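 Fission yeast RE007 carrying one integrated HIV-1 vpr copy, seeded at OD 0.01 in PMG+AL medium with 23 nL pinned compound. Grown 24 h at 30 degrees; viability read by BacTiter-Glo luminescence after 5 min.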
# * = called active by the depositor; ? = inconclusive; . = not tested or not shown; [ ] = dose if it differs, or a comment. Unless noted, the call rests on the fitted dose curve; in most records, active means well fitted curve in the direction sought with a large enough effect; inconclusive means small, poorly fitted or top-dose-only effect, or another doubt; inactive means no such curve, though single readings can be large; an effect the other way counts as inactive or inconclusive. Potency means the concentration at half of the fitted maximal effect. Rows are unselected. Share with any hit: about 4.5%.
SMILES,Cruzain inh noDet,NS1 function inh,Lassa entry inh,SARS PLP yeast,2A StopGo,MARV entry inh,Cruzain Triton,RE007 growth inh
Cc1c(Cl)c(C(=O)N2CCCC2)nn1C,5%,-8%,-13%,7%,0%,-4%,-2.0%,-27%
CCCCN(C)C(=O)C1CCN(C/C(C)=C/c2ccccc2)CC1,6%,-7%,-19%,-10%,-23%,-29%[46.1 µM],1.8%,3%
C=CCn1c(CCc2ccccc2)nnc1SCC(=O)OC,.,-9%,9%[46.1 µM],-12%,-2%,-9%[46.1 µM],.,19%
CCOC(=O)c1c(NC(=O)CCCOc2ccc(C(C)(C)C)cc2)sc2c1CCC2,8%,.,11%[46.1 µM],.,-5%,.,-0.3%,.
COc1ccc(-n2c3c(cc(C(=O)NCC(=O)c4ccccc4)c2=O)C(=O)CC(C)(C)C3)cc1,.,-52%,20%,-8%,-16%,-13%,.,4%
O=C(COc1ccc(NC(=O)c2ccccc2[N+](=O)[O-])cc1)c1ccc(F)cc1,.,6%,-3%,0%,17%,0%[46.1 µM],.,-1%
CC1(C)Cc2c(sc(NC(=O)c3ccc(S(=O)(=O)N4CCCC4)cc3)c2C#N)C(C)(C)N1,.,11%,?,2%,-17%,-16%,.,-3%
Cc1ccc(OCC(O)Cn2c(N3CCCCC3)nc3c2c(=O)[nH]c(=O)n3C)cc1 (centres undefined),.,2%,.,-4%,?,.,.,4%
COc1cccc(OCc2cc(C(=O)N3CCC(c4ccncc4)CC3)no2)c1,.,-15%,?,-9%,-27%,?,.,-11%
CN1CCN(S(=O)(=O)c2ccc3ccccc3c2)CC1,?,-3%,.,-5%,-6%,.,-0.8%,1%
CC(=O)n1cc(-c2ccncc2)c2ccccc21,-8%,-86%,.,-3%,-21%,.,-2.3%,10%
Cc1cc(NC(=O)CSc2nc3c(sc4ccccc43)c(=O)n2CCCN2CCOCC2)n[nH]1,-22%,-15%,?,11%,33%[activator],-15%,-13%,-6%
CNC(=O)CN1C(=O)c2cccnc2Sc2ccccc21,11%,.,17%[46.1 µM],.,0%,.,5.8%,.
Clc1ccc(Cl)c(OCCCCN2CCNCC2)c1,.,-15%,?,-1%,-6%,11µM*,.,-20%
CCCc1cc(CNC(=O)C2CCC(=O)N(Cc3ccccc3OC)C2)on1 (centres undefined),.,7%,.,-2%,-1%,.,.,0%
COc1ccc(C(C)=O)cc1CC(C(=O)c1ccc(Br)cc1)N(C)C (centres undefined),-13%,14%,16%,10%,-14%,0%,2.9%,?
CCN(CC)c1ccc(C2=NNC(=O)CC2C)cc1[N+](=O)[O-] (centres undefined),0%,-2%,-8%,1%,-14%,?,-3.6%,6%
Cc1ccc(S(=O)(=O)N2CCOCC2)cc1NC(=O)COC(=O)c1ccc(Cl)s1,.,.,6%,3%,-15%,?,.,-4%
CS(=O)c1ccccc1-c1nc(-c2ccc(Cl)cc2)no1 (centres undefined),.,.,24%,-1%,48%[activator],-2%[46.1 µM],.,-8%
CCN(CC)c1cc(NCCO)c([N+](=O)[O-])c2nonc12,.,3%,-3%[46.1 µM],1%,-1%,?,.,-15%
COc1ccc(-c2cc(C(=O)N3CCCc4ccccc43)no2)cc1,7%,-44%,-2%,-25%,46%[activator],-5%,-5.6%,-8%
CC(=O)c1ccc(OCCCC(=O)N(CCC2=CCCCC2)c2c(N)n(Cc3ccccc3)c(=O)[nH]c2=O)cc1,.,.,-9%,-2%,-8%,?,.,9%
CC(=O)c1cnc(Nc2cccc(C)c2)s1,.,.,6%,-2%,83%[activator],?,.,28%
COCCCN(C(=O)Cc1csc(-c2cccc(Cl)c2)n1)c1c(N)n(Cc2ccccc2)c(=O)[nH]c1=O,.,.,8%,-1%,7%,0%,.,10%
CCC1C/C(=C\c2cc(OC)c(OC)cc2OC)C(=O)/C(=C/c2cc(OC)c(OC)cc2OC)C1 (centres undefined),.,22%,.,0%,?,.,.,9%
Cc1ccc(N(CC(N)=O)C2SC(=O)N(C)C2=O)cc1 (centres undefined),0%,-1%,-2%,28%,8%,10%,1.0%,3%
COCCOc1nc2c(c(=O)n(C)c(=O)n2C)n1Cc1cccc(OC)c1,2%,-2%,-17%,-4%,?,?,1.6%,-6%
O=C(/C=C/c1ccco1)Nc1ccc(S(=O)(=O)N2CCOCC2)cc1,.,2%,-15%,0%,5%,4%,.,9%
Cn1cccc1C(C(=O)NC1CCCCC1)N(C(=O)Cc1cccs1)C1CC1 (centres undefined),-16%,-2%,-8%,-1%,9%,-17%,1.8%,-2%
Cc1cc(=O)oc2ccc(OC(=O)CC(C)C)cc12,.,-1%,-2%,11%,13%,6%[46.1 µM],.,3%
C/C(CC(=O)Nc1cccc(Cl)c1)=N\NC(=O)Cc1ccc(Cl)cc1,0%,17%,0%,-3%,-28%,-5%,-7.8%,-25%
COc1ccc(CCC(=O)NCc2nc3cccnc3n2Cc2ccccc2)cc1,11%,.,3%[46.1 µM],.,3%,.,-2.5%,.
CCOc1ccc(OCC(O)CN2CCN(S(=O)(=O)c3cccc(C(F)(F)F)c3)CC2)cc1 (centres undefined),.,0%,-2%[46.1 µM],0%,?,-21%[46.1 µM],.,18%
COc1ccccc1NC(=S)Nc1cccc(F)c1,5%,0%,16%,16%,32%[activator],5%,-0.7%,2%
CCN1CCN(C(=O)NC2CC(=O)N(c3ccc(OC)cc3)C2)CC1 (centres undefined),.,.,6%[46.1 µM],-5%,-18%,?,.,-16%
CCN(CC)S(=O)(=O)c1ccc(N2CCOCC2)c(NC(=O)Cc2cccc3ccccc23)c1,-4%,17%,?,16%,1%,?,-3.0%,-15%

# Retrieved by structure from above:
SMILES,Cruzain inh noDet,NS1 function inh,Lassa entry inh,SARS PLP yeast,2A StopGo,MARV entry inh,Cruzain Triton,RE007 growth inh
O=C(/C=C/c1ccco1)Nc1ccc(S(=O)(=O)N2CCOCC2)cc1,.,2%,-15%,0%,5%,4%,.,9%
COCCOc1nc2c(c(=O)n(C)c(=O)n2C)n1Cc1cccc(OC)c1,2%,-2%,-17%,-4%,?,?,1.6%,-6%

# Other structures.
SMILES,Cruzain inh noDet,NS1 function inh,Lassa entry inh,SARS PLP yeast,2A StopGo,MARV entry inh,Cruzain Triton,RE007 growth inh
Cc1ccc(C(=O)c2cc(C)sc2NC(=O)CN2CCN(C(=O)c3ccco3)CC2)cc1,?,-4%,?,-17%,?,?,1.2%,12%
CCOC(=O)C1=C(C)NC(C)=C(C(=O)OCC)C1C(=O)OCC(=O)N(C)C,.,-6%,1%,2%,7%,13%,.,13%
CCN1CC=C2C(C#N)=C(N)C(C#N)(C#N)C(CCc3ccccc3)C2C1 (centres undefined),6.3µM*,8%,-7%,-1%,-14%,?,14µM*,-8%
COc1ccc(C(=O)N2CCc3ccccc32)cc1,-4%,-13%,14%,11%,45%[activator],?,-1.4%,?
CN(CC(=O)N1CCCCCC1)S(=O)(=O)c1ccccc1,.,3%,-1%[46.1 µM],-5%,23%,?,.,-5%
CCOc1cc(S(=O)(=O)NCc2ccncc2)c(C)cc1C,.,2%,-1%[46.1 µM],-1%,18%,-5%,.,-12%
O=C(O)c1ccccc1NN=C1CCCCC1,-9%,-10%,?,-1%,69%[activator],-4%,-3.0%,4%
Cc1ccc(C(C)C)cc1OCC(=O)NCCCn1ccnc1,.,.,11%[46.1 µM],10%,-9%,7%[46.1 µM],.,-8%
CCC(C)Sc1nc(O)cc(=O)[nH]1 (centres undefined),-5%,-5%,0%,6%,-22%,-1%,0.2%,-10%
Cc1cc(C(=O)NC(C)c2ccc3c(c2)OCO3)cs1 (centres undefined),5%,0%,5%,1%,-6%,8%,3.8%,12%
Cc1csc(NC(=O)C2C3C=CC(C3)C2C(=O)O)n1 (centres undefined),-6%,2%,-5%,-5%,-9%,-13%,4.6%,3%
CC(C)C[C@H](N)c1nnc(SCc2ccc(Cl)cc2)o1,.,3%,-9%,1%,-3%,-14%[46.1 µM],.,-9%
c1ccc(-c2csc(Nc3ccccn3)n2)cc1,.,-12%,?,3%,-21%,?,.,-21%
Cc1ccc(CN(C(=O)Cn2nnc3ccccc32)C(C(=O)NCc2ccco2)c2cccs2)cc1 (centres undefined),-10%,-26%,-10%,-5%,20%,?,-4.0%,21%
N/C(CCN1CCOCC1)=N/O,0%,4%,-5%,2%,7%,-10%,0.2%,8%
Cc1[nH]c2ccc(C(=O)OC(C)C(=O)N(C)C3CCCCC3)cc2c1C (centres undefined),.,.,?,-1%,0%,-28%,.,-22%
CSCc1c(C(=O)NCCc2ccccn2)oc2ccccc12,.,-3%,1%,0%,10%,1%[46.1 µM],.,-12%
O=C(c1cc2ccccc2o1)N1CCN=C1SCc1cccnc1,-1%,-7%,15%,-5%,15%,-1%,-0.3%,?
Cc1ccc(-n2c(SCC(=O)N3CC(=O)Nc4ccccc43)nc3ccccc3c2=O)cc1C,-11%,?,.,28%,?,5%,-2.9%,11%
CC(=O)Nc1ccc(S(=O)(=O)NCC(=O)OCc2cc(=O)oc3ccc4ccccc4c23)cc1,?,12%,2%,7%,-9%,11%,-7.6%,11%
CC(=O)OC[C@]1(OC(C)=O)C[C@@]23CC[C@H]4[C@@](C)(CCC[C@@]4(C)C(=O)O)[C@@H]2CC[C@@H]1C3,-18%,-5%,1%,-20%,-27%,-32%,-4.3%,6%
C=CCN1C(=O)C2(C(C(=O)c3ccc(C)o3)=C(O)C(=O)N2CCCN2CCOCC2)c2ccccc21 (centres undefined),-14%,7%,10%,-1%,-16%,1%,0.0%,6%
COc1cc(C(=O)NC2CCCCC2)ccc1OCc1ccc(Cl)cc1Cl,-7%,7%,1%,24%,-8%,-8%,0.0%,1%
CCCOc1ccc(/C=C/C(=O)Nc2ccc([N+](=O)[O-])cc2C)cc1,25µM*,2%,-4%,-4%,-7%,-4%,2.5%,5%

# Compound activity: PubChem, National Center for Advancing Translational Sciences (NCATS)
